CtBP-E1A inh: CtBP/E1A binding inhibition; AlphaScreen GST-E1A/His-CtBP binding, 1536-well; active compounds read low; control for the full effect not named in the record; 0.49% of 340,000 active; activity change, % (no concentration beside the values); in the data active means activity change below about -65%; inconclusive means about -30% to -65%; inactive means above about -30%; also: % is scaled to controls: 0 for no effect and ±100 for the full control effect
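GST-E1A and His-tagged CtBP (125 nM each as 5X stock) were preincubated with pin-transferred compound for 2 h at 37 °C in the dark, then glutathione donor and nickel acceptor beads were added for 1 h before AlphaScreen reading.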
PINK1 expr mod: PINK1 expression modulation. AID 624263. PINK1 immunofluorescence, high-content cytometry, 24 h. Potency, µM (highest dose often 76.6 µM), for inactives: at the top dose activation (PINK1 increase), actives largely listed as activators. 0.2% of 410,000 active; active = well fitted activation curve with a large enough effect; inconclusive = small, poorly fitted or top-dose-only effect; inactive = flat fitted curve, though single readings scatter; cell line not stated here;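 also: potency is read from the fitted curve at half-maximal effect; % of control where 0% means no effect; nearly all actives have a fitted effect of over 65% in size; a mitochondrial uncoupler was the plate control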
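Measures PINK1 amount and localization on or inside mitochondria by immunofluorescence. Stable cells get compounds at 5 concentrations for 24 hours before fixation and staining; CCCP controls included.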
D2 PAM: human D2 receptor positive allosteric modulation; DiscoveRx D2 beta-arrestin cells, luminescence, 90 min; 100% = 57 uM dopamine signal; P14416; AID 624464; 0.23% of 360,000 active; potentiation, % (test concentration not listed); active = potentiation of 50% or more; inconclusive = 30% to 50%; inactive = 30% or less;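 also: compound concentration not given in the record; tested on top of an EC20 dose of dopamine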
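PathHunter D2 cells, attached overnight at 37 deg C, received compound in DMSO plus dopamine at EC20 (50 nM final) for 90 min at 37 deg C. Beta-arrestin recruitment was read as luminescence after 1 h with detection reagent at ambient temperature.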
D2 ag: human D2 receptor agonism in beta-arrestin assay | P14416 | DiscoveRx PathHunter D2 beta-arrestin, luminescence, 90 min; 100% = 57 uM dopamine signal | activation, % (concentration not given with the values) | 0.084% of 360,000 active; in the data active = activation above about 40%; inconclusive = about 15% to 40%; inactive = below about 15%; also: compound concentration not given in the record; the text of the record calls up to 30% inactive
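DiscoveRx PathHunter D2 beta-arrestin cells (2,100/well) attached overnight, then compound-stimulated 90 min at 37 C in HBSS/10 mM HEPES/0.1% Tween-20 buffer; beta-galactosidase complementation read by luminescence after 1 h at ambient temperature. Dopamine 57 uM final (EC100) as control.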
TRPML1 ag: agonists of human TRPML1 channel | TRPML1-expressing cells, Ca2+ dye fluorescence, FDSS; host cell line not named in the record; reference of the full effect not given here | activation, % (test concentration not listed) | 0.12% of 410,000 active | Q9GZU1; in the data active = activation above about 50%; inconclusive = about 30% to 50%; inactive = below about 30%; also: 0% is about no effect; the text of the record puts the active cut at 80%
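Kinetic FDSS Ca2+ read in Tet-induced TRPML1-DL cells (ABD Ca8 dye plus quencher, 45-90 min RT loading): baseline, then compound, then 110 s agonist window; EC80 agonist 54-4 at 4uM final added afterwards for a 110 s antagonist window.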
Six1-Eya2 inh: Six1/Eya2 interaction inhibition | activity change, % (no concentration beside the values) | Q15475+O00167 | 0.56% of 360,000 active | AlphaScreen GST-Six1/His-Eya2 binding, biochemical; active compounds read low; control for the full effect not named in the record; in the data active = activity change below about -65%; inconclusive = about -30% to -65%; inactive = above about -30%; also: % is scaled to controls: 0 for no effect and ±100 for the full control effect
Target sequence (O00167 whole entry, looked up): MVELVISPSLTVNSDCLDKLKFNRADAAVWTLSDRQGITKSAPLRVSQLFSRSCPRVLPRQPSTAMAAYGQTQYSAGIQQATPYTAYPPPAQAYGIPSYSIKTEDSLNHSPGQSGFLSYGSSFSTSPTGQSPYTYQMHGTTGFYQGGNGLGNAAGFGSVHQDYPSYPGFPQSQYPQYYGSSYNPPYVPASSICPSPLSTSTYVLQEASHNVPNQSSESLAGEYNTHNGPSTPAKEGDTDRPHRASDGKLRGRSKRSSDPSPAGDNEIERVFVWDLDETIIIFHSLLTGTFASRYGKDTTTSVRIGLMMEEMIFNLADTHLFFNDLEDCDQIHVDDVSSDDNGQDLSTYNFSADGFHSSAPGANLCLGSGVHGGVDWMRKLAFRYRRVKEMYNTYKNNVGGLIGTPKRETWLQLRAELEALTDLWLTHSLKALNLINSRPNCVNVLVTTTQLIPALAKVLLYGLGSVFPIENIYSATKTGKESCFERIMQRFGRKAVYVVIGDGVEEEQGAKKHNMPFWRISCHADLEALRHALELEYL
Target sequence (Q15475 whole entry, looked up): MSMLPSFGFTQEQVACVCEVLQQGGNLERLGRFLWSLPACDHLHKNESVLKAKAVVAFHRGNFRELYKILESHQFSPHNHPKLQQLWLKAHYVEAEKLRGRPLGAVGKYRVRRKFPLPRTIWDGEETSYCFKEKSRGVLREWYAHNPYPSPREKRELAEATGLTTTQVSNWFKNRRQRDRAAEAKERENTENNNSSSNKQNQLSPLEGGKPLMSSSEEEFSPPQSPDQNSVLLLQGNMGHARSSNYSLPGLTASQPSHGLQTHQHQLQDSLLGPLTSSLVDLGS
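GST-Six1 + His-Eya2 (5X stock: 250/500 nM); Tris pH 8.0, 300 mM NaCl, 0.05% BSA, 0.02% Tween 20; GSH donor/Ni acceptor beads; 1 h 37 °C dark; AlphaScreen readout.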
Starred values were filed as active, the others as inactive; & = joins results of further samples; [ ] = remark or other dose.

COc1cccc(-c2nn(-c3ccccc3)cc2CNC(C)Cn2cncn2)c1 (stereo not given) was read as CtBP-E1A inh -1.4, PINK1 expr mod -1.2%, D2 PAM -11.7, D2 ag -3.6, TRPML1 ag -0.1 and Six1-Eya2 inh -2.1.
Screening C/C(=N\NC(=O)C1COc2ccccc2O1)c1ccccn1 (stereo not given) returned CtBP-E1A inh -86.3*, PINK1 expr mod -2.7%, D2 PAM -9.5, D2 ag -6.5, TRPML1 ag 1.0 and Six1-Eya2 inh -90.9*.
Cc1cccc(NC(=O)[C@@H]2CCCN2C(=O)OC(C)(C)C)c1C was read as CtBP-E1A inh -2.9, PINK1 expr mod 0.2%, D2 PAM -9.2, D2 ag -3.1, TRPML1 ag 1.3 and Six1-Eya2 inh -2.2.
Screening Cc1ccc2oc(=O)cc(CN3CCN(Cc4ccccc4)CC3)c2c1 returned CtBP-E1A inh 5.9, PINK1 expr mod 0.0%, D2 PAM -13.0, D2 ag -0.1, TRPML1 ag 0.8 and Six1-Eya2 inh 7.2.
Screening CCc1ccc(C2NC(=S)NC3=C2C(=O)N(c2ccccc2OC)C(c2ccc(CC)cc2)N3)cc1 (stereo not given) returned CtBP-E1A inh -14.0, PINK1 expr mod 1.9%, D2 PAM -5.7, D2 ag -1.0, TRPML1 ag 0.2 and Six1-Eya2 inh -3.8.
Screening O=S(=O)(c1ccc(NC(=S)NN=Cc2ccccc2O)cc1)N1CCCCC1 returned CtBP-E1A inh -89.3*, PINK1 expr mod 14.0%, D2 PAM -23.8, D2 ag -1.1, TRPML1 ag 3.9 and Six1-Eya2 inh -86.3*.
Screening Cc1cc(OCC(=O)N2CCC(C(=O)O)CC2)c2c(C)c(C)c(=O)oc2c1 returned CtBP-E1A inh 2.9, PINK1 expr mod 0.7%, D2 PAM 5.0, D2 ag -2.7 and Six1-Eya2 inh 0.1.
`COc1ccc(-n2c(CCc3ccccc3)n[nH]c2=S)cc1` gave PINK1 expr mod -0.5%, D2 PAM -7.9, D2 ag -4.8, TRPML1 ag 1.5 and Six1-Eya2 inh 11.9.
Screening COc1ccc(Cn2nnnc2C(c2cccs2)N2CCN(c3ccccc3)CC2)cc1 (stereo not given) returned CtBP-E1A inh -6.7, PINK1 expr mod -1.7%[38.3 µM], D2 PAM -1.5, D2 ag 0.6, TRPML1 ag 2.7 and Six1-Eya2 inh -17.6.
Screening CS(=O)(=O)N1CCc2cc(C(=O)NC3CC3)ccc21 returned CtBP-E1A inh 3.5, PINK1 expr mod -1.0%, D2 PAM -1.2, D2 ag -1.3, TRPML1 ag 0.4 and Six1-Eya2 inh 1.3.
Screening CC(=O)Nc1ccc(NC(=O)CSc2ccc(-c3cccnc3)nn2)cc1 returned CtBP-E1A inh -5.6, PINK1 expr mod 1.9%, D2 PAM 25.1, D2 ag -1.2, TRPML1 ag -0.1 and Six1-Eya2 inh -5.8.
CCOc1ccc(S(=O)(=O)N2CCN(Cc3ccccc3)CC2)cc1 was read as CtBP-E1A inh -0.5, PINK1 expr mod -0.5%, D2 PAM -8.4, D2 ag -4.4, TRPML1 ag -0.2 and Six1-Eya2 inh 2.6.
Screening CCOC(=O)/C=C/C(=O)Nc1ccc(-c2nnc3n2CCCCC3)cc1 returned CtBP-E1A inh -65.7*, PINK1 expr mod 2.2%, D2 PAM -9.1, D2 ag -1.4, TRPML1 ag -0.8 and Six1-Eya2 inh -11.8.
`CC1CC(C)CN(S(=O)(=O)c2ccc(C(=O)NNC(=O)c3ccccc3F)cc2)C1` (stereo not given) gave CtBP-E1A inh -16.1, PINK1 expr mod 0.8%, D2 PAM -14.7, D2 ag -2.5, TRPML1 ag 0.5 and Six1-Eya2 inh 3.8.
`CC(C)CCNC(=O)CN1N=C(c2ccc(Cl)cc2)CCC1=O` gave CtBP-E1A inh 2.7, PINK1 expr mod -2.6%&-0.5%, D2 PAM -11.9, D2 ag -2.0, TRPML1 ag 0.4&0.8 and Six1-Eya2 inh 6.9.
Screening N#C/C(=C\c1ccc(OC(F)F)cc1)C(=O)N1CCCCC1 returned CtBP-E1A inh -13.7, PINK1 expr mod 4.1%, D2 PAM -7.2, D2 ag -1.1, TRPML1 ag 0.1 and Six1-Eya2 inh 2.9.
`O=C1OC(c2ccccc2)(c2ccc3cc(O)ccc3c2)c2ccccc21` (stereo not given) gave CtBP-E1A inh 16.9, PINK1 expr mod -4.6%, D2 PAM -6.7, D2 ag 1.2, TRPML1 ag 1.6 and Six1-Eya2 inh 10.7.
CC(=O)N1CCN(c2ccnc3cc(Cl)ccc23)CC1 was read as CtBP-E1A inh -0.4, PINK1 expr mod -2.5%, D2 PAM -4.5, D2 ag -0.5, TRPML1 ag -1.1 and Six1-Eya2 inh -13.9.
CCOC(=O)c1c(C)n(C)c2ccc(OC)c(NC(=O)CN3CCSCC3)c12 was read as CtBP-E1A inh 3.2, PINK1 expr mod -3.3%, D2 PAM -7.7, D2 ag -3.8, TRPML1 ag 1.0 and Six1-Eya2 inh -3.4.
`O=C(Nc1cccc(F)c1)OC(CN1CCCCC1)C(F)(F)F` (stereo not given) gave CtBP-E1A inh 4.5, PINK1 expr mod 4.2%, D2 PAM -22.1, D2 ag -1.5, TRPML1 ag 2.2 and Six1-Eya2 inh 7.4.

Reprinted from the entries so far, 2 compounds:
CCOC(=O)c1c(C)n(C)c2ccc(OC)c(NC(=O)CN3CCSCC3)c12 was read as CtBP-E1A inh 3.2, PINK1 expr mod -3.3%, D2 PAM -7.7, D2 ag -3.8, TRPML1 ag 1.0 and Six1-Eya2 inh -3.4.
`O=C(Nc1cccc(F)c1)OC(CN1CCCCC1)C(F)(F)F` (stereo not given) gave CtBP-E1A inh 4.5, PINK1 expr mod 4.2%, D2 PAM -22.1, D2 ag -1.5, TRPML1 ag 2.2 and Six1-Eya2 inh 7.4.

The listing continues.
COc1cc(NS(=O)(=O)c2ccc(NC(=S)NC(=O)C(C)(C)C)cc2)nc(OC)n1 was read as CtBP-E1A inh -6.2, PINK1 expr mod 4.3%[38.3 µM], D2 PAM -4.0, D2 ag -2.9, TRPML1 ag 0.5 and Six1-Eya2 inh -7.3.
Cc1ccc(N2CC(C(=O)OCc3nnc(-c4ccccc4)o3)CC2=O)cc1 (stereo not given) was read as CtBP-E1A inh 3.1, PINK1 expr mod -0.7%, D2 PAM -6.6, D2 ag -9.0, TRPML1 ag 0.5 and Six1-Eya2 inh -4.9.
Screening CC1(C(=O)NS(=O)(=O)c2ccc(F)cc2F)CCN1C(=O)CC1CC1 (stereo not given) returned CtBP-E1A inh 3.9, PINK1 expr mod 0.6%, D2 PAM -6.9, D2 ag -3.1, TRPML1 ag -0.4 and Six1-Eya2 inh 8.3.
`CCOC(=O)/C=C/C(=O)N1CCN(C(=O)/C=C/C(=O)OCC)CC1` gave CtBP-E1A inh 4.0, PINK1 expr mod 9.8%, D2 PAM -5.0, D2 ag -1.4, TRPML1 ag 0.6 and Six1-Eya2 inh 10.1.
Screening C[C@H]1CN([C@@H](C)CO)C(=O)c2cc(-c3ccccc3F)cnc2O[C@H]1CN(C)C(=O)C1CCOCC1 returned CtBP-E1A inh -9.2, PINK1 expr mod -0.9%, D2 PAM -6.6, D2 ag -2.9, TRPML1 ag -0.4 and Six1-Eya2 inh inconclusive.
Screening CCCc1cc(=O)oc2cc(OC(C)C(=O)NCC3CCC(C(=O)O)CC3)c(Cl)cc12 (stereo not given) returned CtBP-E1A inh -21.3, PINK1 expr mod -0.4%, D2 PAM -21.0, D2 ag -5.8 and Six1-Eya2 inh 6.7.
`COc1ccccc1NC(=O)c1ccc(COc2ccc3c(c2)CCC3)cc1` gave CtBP-E1A inh 11.3, PINK1 expr mod 0.1%, D2 PAM 1.8, D2 ag -3.0, TRPML1 ag 2.8 and Six1-Eya2 inh 17.6.
Screening CCN(C(=O)CCNC(=O)Cn1cnc2ccccc2c1=O)c1ccccc1F returned CtBP-E1A inh -2.7, PINK1 expr mod 0.3%, D2 PAM -3.9, D2 ag -1.1, TRPML1 ag -0.3 and Six1-Eya2 inh 3.5.
`COc1ccccc1N1CCN(C(=O)CCCn2nc(C)c([N+](=O)[O-])c2C)CC1` gave CtBP-E1A inh -1.7, PINK1 expr mod -0.9%, D2 PAM -9.2, D2 ag -2.8, TRPML1 ag -0.7 and Six1-Eya2 inh -8.5.
COC(=O)C1CN(C(=O)C(C)Oc2cc(C)ccc2C(C)C)c2ccccc2O1 (stereo not given) was read as CtBP-E1A inh -11.1, PINK1 expr mod -0.8%, D2 PAM -3.7, D2 ag -1.2, TRPML1 ag 1.4 and Six1-Eya2 inh -14.7.
`CC1CCCC(C)N1C(=O)COC(=O)c1cccnc1Cl` (stereo not given) gave PINK1 expr mod 1.3%, D2 PAM -7.2, D2 ag -1.4, TRPML1 ag -0.9 and Six1-Eya2 inh -0.9.
COc1ccc(CCNC(=O)CCC(=O)NC2CCCCC2)cc1OC was read as PINK1 expr mod -0.9%, D2 PAM -36.1, D2 ag -3.6, TRPML1 ag 0.0 and Six1-Eya2 inh -15.7.
For Cc1ccc(CN2CC(C(=O)N3CCN(c4ccccc4Cl)CC3)CC2=O)cc1 (stereo not given) the results were CtBP-E1A inh -1.6, PINK1 expr mod 2.8%, D2 PAM 1.0, D2 ag -0.6, TRPML1 ag 4.8 and Six1-Eya2 inh 0.4.
Screening O=C(CN1C(=O)S/C(=C\c2ccc(Cl)cc2)C1=O)NCCCn1ccnc1 returned CtBP-E1A inh -14.3, PINK1 expr mod -0.4%, D2 PAM -2.0, D2 ag 1.5, TRPML1 ag -1.0 and Six1-Eya2 inh -0.7.
For CN(C)c1ccc(/C=N/NC(=O)c2ccc3c(c2)OCO3)cc1 the results were CtBP-E1A inh -1.7, PINK1 expr mod 2.6%, D2 PAM -16.7, D2 ag -2.2, TRPML1 ag 0.7 and Six1-Eya2 inh -4.8.
CN1CCc2nc(NC(=O)COc3ccc4ccccc4c3)sc2C1 was read as CtBP-E1A inh -3.0, PINK1 expr mod 2.8%, D2 PAM -9.2, D2 ag -0.8, TRPML1 ag -0.2 and Six1-Eya2 inh -1.1.
Screening NS(=O)(=O)c1cccc(NC(=O)COc2ncnc3c2cnn3-c2ccccc2)c1 returned CtBP-E1A inh -5.3, PINK1 expr mod 1.5%, D2 PAM 2.2, D2 ag 5.8, TRPML1 ag -0.1 and Six1-Eya2 inh -5.6.
`CCCCCCN=C1CC(C)(C)CC(=O)/C1=C(/O)CCC` gave CtBP-E1A inh 8.7, PINK1 expr mod 4.2%, D2 PAM -5.4, D2 ag 0.6, TRPML1 ag 1.7 and Six1-Eya2 inh 21.5.
Screening CC(c1ccccc1)n1c(Cn2ncc3ccccc3c2=O)n[nH]c1=S (stereo not given) returned CtBP-E1A inh -0.4, PINK1 expr mod 1.5%, D2 PAM -12.1, D2 ag -4.1, TRPML1 ag 0.5 and Six1-Eya2 inh 5.6.
Screening Cc1c(Cl)ccc2c1NC(=O)[C@]21[C@@H]2C(=O)N(Cc3ccccc3)C(=O)[C@@H]2[C@@H]2CCCN21 returned CtBP-E1A inh -7.9, PINK1 expr mod -0.7%, D2 PAM -22.6, D2 ag -2.5, TRPML1 ag -0.4 and Six1-Eya2 inh 6.7.
`Cc1ccc(OCC(=O)OCC(=O)N2c3ccccc3CC2C)cc1C` (stereo not given) gave PINK1 expr mod 0.7%, D2 PAM -5.4, D2 ag 0.9, TRPML1 ag 3.0 and Six1-Eya2 inh 11.5.
